SARS PLpro yeast: SARS-CoV PLP inhibition in yeast | S. cerevisiae expressing SARS-CoV PLpro, growth rescue; control for the full effect not named in the record | Potency, µM (titrated, usually from 32.9 µM), for the others: top-dose activity, positive = growth rescue | hit rate 0.19% among 330,000 | AID 485353; further: 0% is about no effect; nearly all actives have a fitted effect of over 55% in size; growth read by luminescence after 48 h
LASV entry inh: inhibitors of Lassa virus binding or cell entry. Lassa virus pseudotype entry inhibition, cell reporter; control for the full effect not named in the record. Potency, µM (highest dose often 37.9 µM), for inactives: at the top dose activity change, negative = inhibition, actives largely listed as inhibitors. hit rate 1.2% among 300,000. AID 540256; active means well fitted inhibition curve with a large enough effect; inconclusive means small, poorly fitted or top-dose-only effect, or effect the other way; inactive means flat fitted curve, though single readings scatter; tested in HEK293 cells; further: on the % scale 0 is the no-effect control and ±100 the full control effect; nearly all actives have a fitted effect of over 50% in size; luciferase read-out
2A StopGo: lowers the luciferase signal of an FMDV 2A StopGo reporter. human cells with a luciferase reporter of 2A StopGo recoding; control for the full effect not named in the record. Potency, µM (titrated, usually from 57.9 µM), for inactives: at the top dose signal change, negative = less light. hit rate 1.2% among 410,000. AID 1159524; active = well fitted falling curve with a large enough effect; inconclusive = small, poorly fitted or top-dose-only effect; inactive = no such curve, though single readings can be large or run the other way; tested in HEK293T cells; further: on the % scale 0 is the no-effect control and ±100 the full control effect; nearly all actives have a fitted effect of over 45% in size; luciferase light after 4 h
NS1 function inh: blocks influenza NS1 protein function; S. cerevisiae slowed by influenza A NS1, growth recovery by OD600; hit rate 0.4% among 270,000; Potency, µM (series often up to 46.1 µM), for inactives: top-dose activity, positive = more growth; further: actives are rising curves; nearly all actives have a fitted effect of over 50% in size
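Growth recovery, yeast-based: influenza A NS1 expressed in S. cerevisiae causes slow growth, and suppressors are detected by OD600. The parent strain without NS1 is used as positive control.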
* marks the source's active call; other numbers are inactive results; u = inconclusive; x = no result given; [ ] = another dose, or the depositor's remark. Unless noted, the call rests on the fitted dose curve; in most records, active means well fitted rising curve with a large enough effect; inconclusive means small, poorly fitted or top-dose-only effect; inactive means no such curve, though single readings can be large or run the other way. Potency means the concentration at half of the fitted maximal effect. Only part of the results is shown (hit frequency here may not be typical).

molecule,SARS PLpro yeast,2A StopGo,NS1 function inh,LASV entry inh
CSc1nc(NCC(C)O)c2c3c(sc2n1)CN(C)CC3 (stereo not drawn),-1%,-4%,0%,x
COc1cc2c(cc1OC)C(c1cc(OC)c(OC)cc1[N+](=O)[O-])N(C(C)=O)CC2 (stereo not drawn),1%,-2%,3%,x
N#Cc1ccc(/C=C/C(=O)c2ccccc2)cc1,-5%,-25%,-37%,x
CCCCOc1ccc(N=Nc2ccc(N)nc2N)cn1,9%,36%[activator],-7%,x
COc1cc2oc(-c3ccc(O)cc3)cc(=O)c2c(OC)c1O,0%,19%,1%,x
Oc1ccc(/C=N/Nc2ccc(Cl)nn2)c(O)c1O,u,u,8%,x
Cc1cc(C)n(-c2ccnc3cc(Cl)ccc23)n1,-2%,19%,-2%,x
CCOC(=O)Nc1c2ccccc2nc2ccccc12,-4%,u,-4%,x
COC(=O)CSc1cccc2c1C(=O)CC2c1ccccc1 (stereo not drawn),-3%,27%,-38%,x
S=C1N(c2ccccc2)CN(C2CCCCC2)CN1c1ccccc1,-1%,28%,2%,x
CCOc1ccc(/C=N/Nc2ccccc2)cc1,0%,55%[activator],-7%,x
CC(C)CC(=O)Nc1ccc2c(c1)nc(CCN1CCCCC1)n2C,2%,1%,2%,x
COc1cc(NC(=O)SC2=NCCS2)cc(OC)c1,-2%,-9%,u,x
COc1ccc(N=C2S/C(=C\c3ccc(Cl)c([N+](=O)[O-])c3)C(=O)N2CCN(C)C)cc1,-3%,28µM*,6%,x
CC(C)(C)c1ccc(C(=O)O/N=C(\N)c2ccccc2)cc1,-8%,0.71µM*,-136%,x
Cc1ccc(NC(=O)CCOc2ccccc2)c(C)c1,-3%,20%,-5%,x
COC(=O)c1ccc(S(=O)(=O)c2ccc([N+](=O)[O-])cc2)cc1,9%,-14%,-2%,x
NNC(=O)c1[nH]c2ccccc2c1-c1ccccc1,0%,-20%,u,x
O=C(O)CCNc1ccc(NCCC(=O)O)c2c1C(=O)c1ccccc1C2=O,-5%,u,-1%,x
COc1ccc(C2=CC(c3ccc(OC)c(OC)c3)c3c(c4ccccc4oc3=O)O2)cc1OC (stereo not drawn),-2%,-28%,4%,x
CCOP(=O)(Nc1ccc2oc(=O)c3ccccc3c2c1)OCC,-1%,39%[activator],-1%,x
NC(=O)c1cc(C(N)=O)nc(Cl)n1,0%,3%,1%,x
O=C(O)CCNC1CCCCC1,-1%,-9%,-51%,x
COc1cnc(SC)nc1Nc1ccc(C#N)cc1,1%,-15%,-31%,x
Oc1ccc(-c2cn3ccccc3n2)cc1O,0%,-17%,9%,x

Single values from the list:
2A StopGo, COc1cc2c(cc1OC)C(c1cc(OC)c(OC)cc1[N+](=O)[O-])N(C(C)=O)CC2 (stereo not drawn) stands at -2%
NS1 function inh, O=C(O)CCNC1CCCCC1 stands at -51%
SARS PLpro yeast, CCOC(=O)Nc1c2ccccc2nc2ccccc12 stands at -4%

The listing picks up, repeating the 7 entries before the break.
molecule,SARS PLpro yeast,2A StopGo,NS1 function inh,LASV entry inh
O=C(O)CCNc1ccc(NCCC(=O)O)c2c1C(=O)c1ccccc1C2=O,-5%,u,-1%,x
COc1ccc(C2=CC(c3ccc(OC)c(OC)c3)c3c(c4ccccc4oc3=O)O2)cc1OC (stereo not drawn),-2%,-28%,4%,x
CCOP(=O)(Nc1ccc2oc(=O)c3ccccc3c2c1)OCC,-1%,39%[activator],-1%,x
NC(=O)c1cc(C(N)=O)nc(Cl)n1,0%,3%,1%,x
O=C(O)CCNC1CCCCC1,-1%,-9%,-51%,x
COc1cnc(SC)nc1Nc1ccc(C#N)cc1,1%,-15%,-31%,x
Oc1ccc(-c2cn3ccccc3n2)cc1O,0%,-17%,9%,x
Cc1ccc(C#CC(C)(O)C(C)(C)C)cn1 (stereo not drawn),u,6%,u,x
CCn1cc(C(=O)N[C@@H](CCSC)C(=O)NCCCO)c(=O)c2cc3c(cc21)OCO3,2%,7%,4%,x
N#C/C(=C/c1ccc(O)c(O)c1)c1nc2ccccc2[nH]1,-1%,29%,4%,x
Cc1ccc(-c2nc(C(=O)NCCCN(C)C)cc3c2[nH]c2ccccc23)cc1,-3%,u,0%,x
O=C1ON=C(c2ccccc2)/C1=C/c1ccc(O)c(O)c1,1%,u,5%,x
O=C(O)C(c1ccccc1)N1C(=O)/C(=C\c2ccc(-c3cccc(Cl)c3)o2)SC1=S (stereo not drawn),0%,20%,4%,x
CCn1c(-c2ccc[nH]c2=O)nc2ccccc21,0%,9%,3%,x
Cc1cccc(N2CCN(CC(O)COc3ccccc3Cl)CC2)c1 (stereo not drawn),0%,-14%,14%,x
CCCCCc1cc(=O)[nH]c(=S)[nH]1,4%,-7%,8%,x
CCCOc1ccc(-c2nc(-c3ccc([N+](=O)[O-])cc3)cs2)cc1,-1%,4%,1%,x
Cc1cc2nc(/C=C/c3nc4cc(C)c(C)cc4[nH]3)[nH]c2cc1C,1%,5%,0%,x
CC1(C)CC(=O)C(CC2=C(N)CC(C)(C)CC2=O)=C(N)C1,2%,-13%,-2%,x
Nc1ccccc1SC1CC(=O)N(c2ccc(Cl)c(Cl)c2)C1=O (stereo not drawn),0%,-25%,2%,x
CSc1ccc(NC(=O)Nc2ccccc2C(N)=O)cc1,0%,8%,10%,x
Nc1ccc(OCCCc2c(N)nc(N)nc2N)cc1,2%,-6%,5%,x
CCOCCCNC(=O)C1(O)c2cc(Br)ccc2NC(=O)N1c1ccc(CC)cc1 (stereo not drawn),0%,-8%,8%,x
CC(C)/C=C(/C(=O)c1ccc(Cl)cc1Cl)n1cncn1,-6%,35µM*,-81%,x
CN1CCC(OC(=O)c2cccc(F)c2)CC1,0%,-9%,1%,x
CC(C)OC(=O)Nc1ccc(-c2ccc(NC(=O)OC(C)C)cc2Cl)c(Cl)c1,0%,-4%,u,x
CCOc1ccc(NC(=O)c2cc3ccccc3cc2O)cc1,-3%,36%[activator],-30%,x
Clc1cccc(Cn2ncc3ccccc32)c1,-6%,15%,-1%,x
COc1ccc(Nc2cc(C)nc(N)n2)cc1,1%,27%,-54%,x
Nc1ccc(C(=O)Oc2ccc([N+](=O)[O-])cc2)cc1,7%,67%[activator],4%,x
O=C(C(=O)N1CCCC1)c1c(-c2ccccc2)[nH]c2ccccc12,-2%,17%,-3%,x
CC(C)CC(=O)Nc1ccc2c(c1)nc(CCN1CCOCC1)n2C,2%,7%,-2%,x
Fc1ccc(Cn2nnc3ccccc32)cc1,2%,-15%,-1%,x
Cc1cc(N(C)C)ccc1N=Nc1ccc2ncccc2c1,-2%,15%,-8%,x
Cc1ccccc1NC(=O)Oc1cccc(OC(=O)c2ccccc2)c1,-3%,29%,-93%,x
O=C(Nc1cccc([N+](=O)[O-])c1)c1cccc(C(=O)Nc2cccc([N+](=O)[O-])c2)c1,2%,-23%,6%,x
O=[N+]([O-])c1ccc(N=Nc2c(Cl)cc(O)cc2Cl)cc1,-12%,u,-124%,x
CC1C(=O)Nc2ccccc2N1C(=O)c1cccc(C(F)(F)F)c1 (stereo not drawn),-2%,-3%,5%,x
Cc1cc(NC(=O)OC(C)C)ccc1-c1ccc(NC(=O)OC(C)C)cc1C,0%,7%,-3%,x
CC1=CC(C)(C)NC(=S)N1c1cccc2cc(S(=O)(=O)O)ccc12,4%,-12%,3%,x
Cc1ccc(S(=O)(=O)n2cnc3ccccc32)cc1[N+](=O)[O-],-1%,-1%,9%,x
NC(=O)NC(=O)c1nccnc1C(=O)O,2%,-13%,-3%,x
CC(=O)Nc1nc(C)c(CCCOc2ccc([N+](=O)[O-])cc2)c(=O)[nH]1,2%,-16%,2%,x
CCOC(=O)N1CCN(Cc2nc3cc(NC(=O)CC(C)C)ccc3n2CC)CC1,1%,44%[activator],-1%,x
O=C(NC(=S)Nc1cccc(O)c1)c1ccco1,-2%,59%[activator],1%,x
O=[N+]([O-])c1c(Nc2ccc(O)cc2)cc(Cl)c2nonc12,-10%,22µM*,-100%,x
COc1ccc(OC)c2[nH]c(C(=O)N/N=C/c3ccccc3O)cc12,3%,u,-5%,x
CN1CCN(CCCNC(=O)Cn2c(-c3cccs3)cc3ccccc32)CC1,x,8%,x,1%[46.1 µM]
Cc1cc(Nc2cccc(Cl)c2)nc2ccc(NC(=O)c3ccc(F)cc3Cl)cc12,x,u,x,u
CC1=C(C(=O)NCc2ccccc2C)C2(CCCCC2)OC1=O,x,6%,x,1%[46.1 µM]
CCCn1c2ccccc2c2cnn(CC(=O)N(CC)c3cc(C)ccc3C)c(=O)c21,x,-28%,x,0%[46.1 µM]
O=C(Cn1c(-c2cccs2)cc2cc(F)ccc21)N1CCN(c2ccccc2)CC1,x,-19%,x,-28%[46.1 µM]
CCN(CC)C(=O)C1CCCN(c2ncnc3c2nc2n3CCCCC2)C1 (stereo not drawn),x,-19%,x,u
O=C(NC1CCCC1)c1ccc(CSc2nc3cccnc3n2Cc2cccc(F)c2)cc1,x,u,x,-26%[46.1 µM]
CC(C)NC(=O)C1CCCN(c2ncnc3c2nc2n3CCCCC2)C1 (stereo not drawn),x,-15%,x,-4%[46.1 µM]
CCOc1ccccc1NC(=O)C(c1ccccc1)N1Cc2ccccc2C1=O (stereo not drawn),x,38%[activator],x,-12%[46.1 µM]
CC1Cc2cc(S(=O)(=O)N(Cc3ccccc3)C(C)C)ccc2N1C(=O)C1CCC1 (stereo not drawn),x,u,x,u

Remaining list, next part
molecule,SARS PLpro yeast,2A StopGo,NS1 function inh,LASV entry inh
CC(CNC(=O)Cn1c(-c2cccs2)cc2cc(Cl)ccc21)c1ccccc1 (stereo not drawn),x,-14%,x,14%[46.1 µM]
Cc1oc(-c2cccc(Br)c2)nc1CSc1nc2ncccc2[nH]1,x,-18%,x,20%[46.1 µM]
CC(=O)N1CCC(N(Cc2ccco2)C(=O)Nc2cccc(C)c2)CC1,x,-13%,x,4%[46.1 µM]
COc1ccc(NS(=O)(=O)c2ccc3c(c2)CC(C)N3C(C)=O)c(OC)c1 (stereo not drawn),x,-11%,x,3%[46.1 µM]
Cc1cc(C)c(NC(=O)CN2C(=O)c3cccnc3Oc3ccc(Cl)cc32)c(C)c1,x,7%,x,21%[46.1 µM]
COc1ccccc1N1CCN(S(=O)(=O)c2ccc3[nH]c4c(c3c2)CCCC4)CC1,x,-14%,x,u
CCCn1c2ccccc2c2cnn(CC(=O)NCCCN(Cc3ccccc3)C(C)C)c(=O)c21,x,-26%,x,u
CCOc1ccc(CCNC(=O)C2CCN(c3ncnc4c3nc3n4CCCCC3)CC2)cc1,x,-3%,x,-19%[46.1 µM]
CC(NC(=O)c1cccc(Nc2nc3ccccc3n3nnnc23)c1)c1ccccc1 (stereo not drawn),x,u,x,u
CCCNC(=O)Cn1ncc2c3ccccc3n(CCC)c2c1=O,x,-17%,x,0%[46.1 µM]
CCCS(=O)(=O)N1CC(=O)N(c2ccc(C)c(Cl)c2)C(C)(C(=O)NC2CCCCCC2)C1 (stereo not drawn),x,-12%,x,1%[46.1 µM]
Cc1cc2c(n1-c1ccc(C(=O)NCC(C)c3ccccc3)cc1)CCCC2 (stereo not drawn),x,18%,x,-26%[46.1 µM]
COc1cc(NC(=O)Cn2c(SCc3ccc(F)cc3)nc3cccnc32)cc(OC)c1,x,20%,x,17%[46.1 µM]

From PubChem
